Source: PubChem
D2 agonist – activates the human D2 dopamine receptor; P14416; DiscoveRx PathHunter D2 beta-arrestin, luminescence, 90 min; 100% = 57 uM dopamine signal; activation, % (test concentration not listed); 360,000 tested, 0.084% active; AID 624465; in the data active = activation above about 40%; inconclusive = about 15% to 40%; inactive = below about 15%; further: compound concentration not given in the record; the text of the record calls up to 30% inactive
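Agonist mode: compounds alone added to overnight-plated D2 PathHunter cells for 90 min at 37 C, with 57 uM final dopamine (EC100) defining full response. Beta-arrestin recruitment detected by chemiluminescent reagent, read after 1 h at ambient temperature.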
CtBP-E1A inh – CtBP/E1A binding inhibition; activity change, % (concentration not given with the values); AlphaScreen GST-E1A/His-CtBP binding, 1536-well; hits give low values; control for the full effect not named in the record; 340,000 tested, 0.49% active; in the data active means activity change below about -65%; inconclusive means about -30% to -65%; inactive means above about -30%; further: on the % scale 0 is the no-effect control and ±100 the full control effect
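Protein mix (5X: 125 nM each GST-E1A, His-CtBP) was incubated with pinned compound 2 h at 37 deg C in dark, in 50 mM Tris pH 8.0 buffer with 300 mM NaCl. Glutathione donor and nickel acceptor beads followed; AlphaScreen signal read after 1 h.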
Six1-Eya2 inh – inhibitors of human Six1/Eya2 interaction; AlphaScreen GST-Six1/His-Eya2 binding, biochemical; hits give low values; control for the full effect not named in the record; Q15475+O00167; 360,000 tested, 0.56% active; activity change, % (test concentration not listed); AID 651725; in the data active = activity change below about -65%; inconclusive = about -30% to -65%; inactive = above about -30%; further: on the % scale 0 is the no-effect control and ±100 the full control effect; compound concentration not given in the record
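Six1/Eya2 binding was read as AlphaScreen signal after compounds were pinned into GST-Six1 plus His-tagged Eya2 (5X stock 250/500 nM) in pH 8.0 Tris/NaCl/TCEP buffer, beads added, then incubated 1 h, 37 C, dark.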
D2 potentiator – potentiates the human D2 dopamine receptor allosterically. P14416. DiscoveRx D2 beta-arrestin cells, luminescence, 90 min; 100% = 57 uM dopamine signal. potentiation, % (test concentration not listed). 360,000 tested, 0.23% active. AID 624464; active = potentiation of 50% or more; inconclusive = 30% to 50%; inactive = 30% or less;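 further: compound concentration not given in the record; tested on top of an EC20 dose of dopamine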
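D2 cells co-treated with compound plus 50 nM dopamine (EC20) for 90 min at 37 deg C to detect potentiation. Beta-arrestin recruitment was read as enzyme-fragment luminescence after 1 h at ambient temperature. Full response was set by 57 uM dopamine.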
Sfp inh – Sfp phosphopantetheinyl transferase inhibition; Biochemical Sfp PPTase activity, qHTS; Potency, µM, for the others: max response, negative = inhibition, hits mostly inhibitors; 310,000 tested, 3.5% active; active means well fitted inhibition curve with a large enough effect; inconclusive means small, poorly fitted or top-dose-only effect, or another doubt; inactive means no such curve, though single readings can be large or run the other way;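 further: the enzyme is Sfp with the accession as filed and its product quenches rhodamine fluorescence; potency means the concentration at half of the fitted maximal effect; 0% = enzyme reaction without inhibitor and -100% = no enzyme wells; top concentration of the series not given in the record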
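After 15 min at room temperature with compound, 15 nM Sfp received 5 uM rhodamine-CoA plus 12.5 uM BHQ-2-ybbR (50 mM Hepes pH 7.6, 10 mM MgCl2). Rate came from the fluorescence difference over 30 min, ex 525/em 598 nm.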
PINK1 expr mod – modulators of PINK1 expression | PINK1 immunofluorescence, high-content cytometry, 24 h | Potency, µM (series often up to 76.6 µM), for the others: top-dose activation (PINK1 increase), hits mostly activators | 410,000 tested, 0.2% active | AID 624263; active = well fitted activation curve with a large enough effect; inconclusive = small, poorly fitted or top-dose-only effect; inactive = flat fitted curve, though single readings scatter; cell line not stated here;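 further: potency means the concentration at half of the fitted maximal effect; % of control where 0% means no effect; nearly all actives have a fitted effect of over 65% in size; a mitochondrial uncoupler was the plate control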
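Compound titrations (5 concentrations, 24 h) on a stable cell line; DMSO and CCCP controls. Endpoint: fixed-cell PINK1 immunofluorescence with mitochondrial, cell and nuclear markers, scanned by microplate cytometer.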
TRPV1 PAM – potentiators of human vanilloid receptor 1 (TRPV1). Q8NER1. TRPV1-expressing cells, Fluo-8 calcium influx, capsaicin EC20 potentiation; host cell line not named in the record; control for the full effect not named in the record. potentiation, % at 8.33 µM. 320,000 tested, 0.02% active; active means potentiation above 80%; inconclusive means 30% to 80%; inactive means below 30%; further: 0% is about no effect
Target sequence (Q8NER1 whole entry, looked up): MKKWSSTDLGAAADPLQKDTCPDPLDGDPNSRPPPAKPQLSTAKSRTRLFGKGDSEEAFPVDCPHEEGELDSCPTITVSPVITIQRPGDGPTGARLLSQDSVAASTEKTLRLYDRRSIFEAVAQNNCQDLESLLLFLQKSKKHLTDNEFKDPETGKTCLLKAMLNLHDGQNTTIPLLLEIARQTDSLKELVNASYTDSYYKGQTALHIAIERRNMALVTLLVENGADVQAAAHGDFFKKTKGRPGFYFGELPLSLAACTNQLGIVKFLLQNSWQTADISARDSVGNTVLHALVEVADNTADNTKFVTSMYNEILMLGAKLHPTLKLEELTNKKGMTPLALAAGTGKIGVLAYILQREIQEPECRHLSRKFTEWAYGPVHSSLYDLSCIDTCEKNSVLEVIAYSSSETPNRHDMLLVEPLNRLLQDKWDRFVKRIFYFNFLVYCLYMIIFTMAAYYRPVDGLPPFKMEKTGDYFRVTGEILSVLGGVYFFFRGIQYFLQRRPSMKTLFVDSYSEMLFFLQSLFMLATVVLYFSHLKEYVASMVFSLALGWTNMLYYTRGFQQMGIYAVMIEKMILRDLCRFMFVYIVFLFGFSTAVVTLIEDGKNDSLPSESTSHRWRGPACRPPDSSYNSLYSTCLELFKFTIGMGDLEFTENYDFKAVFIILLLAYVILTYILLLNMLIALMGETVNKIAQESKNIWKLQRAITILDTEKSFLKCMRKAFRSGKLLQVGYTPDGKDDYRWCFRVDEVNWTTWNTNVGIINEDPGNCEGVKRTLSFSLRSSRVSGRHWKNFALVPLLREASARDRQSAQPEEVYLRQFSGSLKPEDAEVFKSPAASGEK
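TRPV1-expressing cells were cultured overnight at 35.5C and loaded with Fluo-8 calcium dye for 40 to 90 min at room temperature. After a 10 s baseline, compound was added and calcium influx was read kinetically for 3 min (ex 480/em 520 nm).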
An asterisk follows results filed as active; ? = inconclusive; . = not tested or not shown; & = joins results of further samples.

SMILES	D2 agonist	CtBP-E1A inh	Six1-Eya2 inh	D2 potentiator	Sfp inh	PINK1 expr mod	TRPV1 PAM
CCN(CC)C(=O)C1=C(C)N(Cc2ccc(C(C)(C)C)cc2)C(=O)C(CC(=O)NCCN2CCOCC2)C1 (stereo not drawn)	-0.7	-29.5	-2.2	.	.	0.3%	.
Cc1ccc(-c2csc(N3CCN(CCCn4c(C(F)(F)F)nc5ccccc54)CC3)n2)cc1	-3.2	-23.2	?	-12.2	-1.6%	2.1%	-21.3
COc1cc2cc(C#N)c(SCC(=O)Nc3cc(C)on3)nc2cc1OC	0.1	-16.9	-4.7	-0.3	10.0%	6.2%	8.1
COCCNC(=O)C(c1ccc(C)cc1)N(Cc1cccs1)C(=O)CCC(=O)Nc1ccccn1 (stereo not drawn)	0.1	-5.3	6.0	-6.4	13.3%	1.1%	0.1
CCn1c(Cc2ccc(OC)cc2)nnc1SCC(=O)Nc1cccc(C(=O)OC)c1	1.1	-24.0	-17.3	-3.5	-2.1%	3.9%	7.4
CN(Cc1ccccc1)C(=O)CCS(=O)(=O)c1cc2c(cc1Cl)NC(=O)CO2	-4.7	6.6	1.2	-5.4	12.7%	0.3%	-6.8
COc1cc(C(=O)N/C(=C\c2cn(C)c3ccccc23)C(=O)N2CCN(C)CC2)cc(OC)c1OC	-1.7	-8.1	-1.5	-14.1	5.2%	-1.0%	-38.6
C=CCN1C(=O)c2ccccc2NC1c1cc(Br)cs1 (stereo not drawn)	-3.1	-9.7	-3.0	-2.4	7.9%	0.6%	?
Cc1cccn2c(=O)c3cc(C(=O)NCCC4=CCCCC4)n(C)c3nc12	6.0	1.5	2.1	-0.7	-23.0%	6.5%	13.4
CN(C)c1nc(C#N)nc(N2CCOCC2)n1	-1.2	2.8	6.8	-6.3	17.1%	0.3%&1.4%	-7.5
O=C(Cc1ccccc1)OCC(=O)c1cccc([N+](=O)[O-])c1	-12.0	3.8	0.0	-14.5	.	-2.2%	.
O=C(COc1cccc(Cl)c1)Nc1ccc(N2CCOCC2)cc1	-1.8	-0.6	-7.8	4.6	-9.9%	1.3%	8.9
O=C(NCc1cccs1)C1Cc2c(-c3ccccc3Oc3ccccc3)ccnc2O1 (stereo not drawn)	-3.2	-1.7	-6.3	-5.4	.	2.0%	.
CCC1(C2=CCCCC2)C(=O)NC(=O)N=C1N (stereo not drawn)	-1.5	5.2	7.0	-3.3	.	1.5%	.
O=C(CSc1nnc(Nc2ccccc2)s1)NN1C(=O)NC2(CCCCC2)C1=O	1.7	4.8	-0.2	11.6	-3.4%	-0.2%	6.4
Cc1cc(NC(=O)c2ccccc2)c(Cl)cc1N	-2.1	3.8	-5.6	-1.4	6.2%	0.6%	3.2
CC(C)Oc1ccc(S(=O)(=O)N2CCCCC2)cc1NC(=O)CN1C(=O)NC2(CCCC2)C1=O	0.0	-0.5	6.4	1.4	.	4.2%	?
CC1CCC(C(C)C)C(OP(=O)(c2ccccc2)C(O)c2ccncc2)C1 (stereo not drawn)	3.9	-1.9	5.8	-6.8	10.4%	-0.7%	-22.9
C[C@H]1CN([C@@H](C)CO)S(=O)(=O)c2ccc(Br)cc2O[C@H]1CN(C)Cc1ccccc1	3.5	6.6	8.5	-3.6	.	8.3%	.
c1ccc(Cc2noc(CN3CCN(Cc4ccc5c(c4)OCO5)CC3)n2)cc1	-4.2	-19.1	1.8	-10.1	12.3%	-0.8%	-7.1
Cc1cc(S(=O)(=O)N2CCOCC2)ccc1OCC(=O)Nc1ccc(Br)cc1F	-3.5	5.8	7.9	1.5	6.8%	0.1%	-3.9
CCCCNC(=O)CSc1nc2c(sc(=S)n2-c2cc(Cl)ccc2OC)c(=O)[nH]1	-6.1	-3.4	0.9	-25.3	8.1%	4.1%	?
CCc1cccc(OCCCCNCCCOC)c1	-3.9	5.6	3.1	-18.4	?	-1.5%	-5.0
COc1ccc(CNC(=O)CCSc2ccc(F)cc2)cc1OC	1.3	.	2.9	-5.6	3.9%	1.0%	-12.1
O=C(NCCc1ccc(F)cc1)c1n[nH]c2ccccc12	-0.9	1.5	5.4	-2.0	15.1%	3.2%	-10.6
More structures
SMILES	D2 agonist	CtBP-E1A inh	Six1-Eya2 inh	D2 potentiator	Sfp inh	PINK1 expr mod	TRPV1 PAM
COc1ccc(-c2cn3cc(C)ccc3n2)cc1OC	-1.3	-13.2	-15.2	-9.8	-2.5%	5.9%	?
C=CCC[C@@H](Cc1ccc(F)cc1)C(=O)OC[C@H](Cc1c[nH]c2ccccc12)NC(=O)[C@@H](CC=C)CC(=O)N[C@@H](CO)Cc1ccccc1	2.6	-2.3	-4.0	6.1	.	1.0%	.
Cc1cccc(N2C(=O)CS/C2=N\NC(=O)c2ccc(Cl)cc2)c1C	-5.0	-1.2	-4.0	-12.4	-2.8%	?	-37.0
O=C(c1ccc(F)c(S(=O)(=O)N2CCOCC2)c1)N(CCc1ccccc1)Cc1ccccc1	-1.2	-7.0	4.8	2.4	.	1.5%	-26.1
Cc1ccc(NC(=O)NC(=O)c2ccccc2)cc1F	1.0	1.6	-0.2	-3.7	12.8%	1.0%	-6.5
Cc1ccc(-c2cc(C(=O)Nc3cc(C)on3)c3ccccc3n2)c(C)c1	-6.0	-11.0	-16.3	-12.9	-1.3%	7.9%	-9.8
CC(C)CN(C#N)c1nc(N2CCOCC2)nc(N2CCOCC2)n1	-3.8	-1.9	7.4	-3.8	14.0%	1.1%	-32.1
COc1cc(NS(=O)(=O)c2ccc(NC(=O)c3ccc(F)cc3)cc2)ncn1	-6.7	10.7	-2.5	-23.1	0.6%	0.0%	?
Nc1nc(SCC(=O)Nc2ccc(OCc3ccccc3)cc2)n[nH]1	-0.9	8.9	9.0	-8.6	7.2%	0.8%	-5.0
O=c1c2ccccc2[nH]c(=S)n1CCCn1ccnc1	1.8	2.2	1.1	-6.3	3.3%	-0.8%	-6.9
CCOc1ccc(NC(=O)CN2CCc3ccccc3C2)cc1	4.2	2.9	4.0	-12.2	6.6%	-0.7%	2.0
COc1ccc(-c2nn(-c3ccccc3)cc2CNCc2cccnc2)c(F)c1	-7.8	1.2	-3.7	-44.0	-9.7%	-0.9%	-11.1
CCOC(=O)/C=C/C(=O)OCc1csc(CC(=O)Nc2ccccc2C)n1	-6.6	9.5	7.9	8.1	15.5%	3.8%	21.1
Cc1cccc(C(=O)NCCNC(=O)c2cccnc2)c1	-2.7	21.4	13.3	0.4	14.3%	-1.4%	-2.0
CC(=O)NC(CC(=O)OCC(=O)Nc1ccc2c(c1)OCO2)c1ccccc1 (stereo not drawn)	-2.5	2.6	3.1	-2.0	10.7%	-1.3%	-5.0
CC(C)N1CCC(C)(C(=O)Nc2cccc3c2CCCC3)C1 (stereo not drawn)	1.4	1.1	1.7	-9.9	.	0.9%	.
Cn1c(=O)c2c(nc(Oc3cccc(Br)c3)n2C)n(C)c1=O	-2.9	1.4	-3.6	-2.3	-5.3%	4.1%	-9.6
COc1ccc(OC)c(NC(=O)CCN2CCN(CCO)CC2)c1	5.2	.	2.2	9.5	12.7%	0.6%	-2.8
CCOC(=O)c1ccc(NC(=O)CSc2ccc(-c3ccncc3)nn2)cc1	2.6	0.1	0.6	-0.4	4.6%	3.8%	13.1
Cc1cc(F)ccc1S(=O)(=O)N1CCCOC1CNC(=O)C(=O)NCCC1=CCCCC1 (stereo not drawn)	-0.7	22.2	6.6	-0.9	10.3%	7.4%	8.2
COc1ccc2c(c1OC)C(=O)N1c3ccccc3C(=O)N(c3ccc(F)cc3)C21 (stereo not drawn)	-2.2	-13.3	-9.0	0.4	3.4%	-1.4%	-26.9
COc1ccc(-c2cc(C(=O)Nc3cc(OC)c(OC)c(OC)c3)[nH]n2)c(C)c1	-0.9	-11.6	-1.6	-7.9	.	14.5%	.
CCOC(=O)C1CCCN(C(=O)CCCOc2cc(=O)n(C)c3ccccc23)C1 (stereo not drawn)	2.1	-5.3	-1.7	5.9	24.5%	0.5%	24.8
CCSc1nnc(NC(=O)C(C)Sc2nc3ccccc3[nH]2)s1 (stereo not drawn)	-0.7	-6.3	0.6	-5.0	4.9%	0.8%	2.0
CCOc1ccccc1CN1CCNC(=O)C1CC(=O)NCCC1=CCCCC1 (stereo not drawn)	-3.1	-4.2	-7.5	-14.4	4.6%	1.3%	2.1

Next part; the last 2 above are carried over.
SMILES	D2 agonist	CtBP-E1A inh	Six1-Eya2 inh	D2 potentiator	Sfp inh	PINK1 expr mod	TRPV1 PAM
CCSc1nnc(NC(=O)C(C)Sc2nc3ccccc3[nH]2)s1 (stereo not drawn)	-0.7	-6.3	0.6	-5.0	4.9%	0.8%	2.0
CCOc1ccccc1CN1CCNC(=O)C1CC(=O)NCCC1=CCCCC1 (stereo not drawn)	-3.1	-4.2	-7.5	-14.4	4.6%	1.3%	2.1
COC(=O)c1cc(NC(=O)c2cccc(C(F)(F)F)c2)c(=O)oc1C	-0.1	-11.5	-1.6	-7.6	?	6.2%	-6.7
CCOC(=O)N1CCN(c2ccc(S(=O)(=O)N(Cc3ccccc3)Cc3ccccc3)cn2)CC1	0.9	14.6	-4.6	12.6	-2.8%	-1.8%	0.0
CCOc1ccc(N2CC(=O)SC2=S)cc1	-6.2	6.8	-5.0	1.3	1.0%	.	-6.1
O=C(CSc1nnc(NC(=O)c2ccco2)s1)Nc1ccc2c(c1)OCCO2	-1.8	-18.5	-3.8	1.9	-23.8%	0.2%	0.9
Cc1ccc(-n2ccn(CC(=O)NCCc3ccccc3)c(=O)c2=O)cc1C	2.9	.	1.2	-7.7	1.5%	1.6%&0.6%	-3.6
Cc1ccc(-n2nnnc2Sc2nc([N+](=O)[O-])nn2C)cc1	2.6	0.9	2.0	2.2	6.1%	-0.2%	-5.6
COc1ccc([N+](=O)[O-])cc1-n1cccc1	-0.2	-19.7	-15.2	11.2	6.3%	2.3%	-6.8
CCOC(=O)C1(C(=O)OCC)CCN(S(=O)(=O)c2ccccc2)CC1	1.8	6.8	0.1	-5.3	.	0.0%	.
CCN1C(=O)/C(=C2/C=Cc3cc(C)ccc3N2CC)N(C)C1=S	-7.9	0.6	-13.0	-8.7	?	6.9%	16.8
Cc1cc(/C=N/n2cnnc2)c(C)n1-c1cccc(C(=O)O)c1	0.7	4.9	-5.7	-4.1	18.6%	.	-6.3
CC1CN(S(=O)(=O)c2ccc(C(=O)Nc3nncs3)cc2)CC(C)O1 (stereo not drawn)	-5.0	-2.2	2.5	12.5	.	0.1%	.
